# Bioassay records (PubChem BioAssay)
# CHT block: inhibitors of human choline transporter CHT | AID 488975, 2010 | 310,000 tested, 0.86% active | High affinity choline transporter 1 (Homo sapiens), Q9GZV3 | B-score at 10 µM | CHT-expressing cells, membrane potential dye, choline response; active compounds read low;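 active = B-score over 3 SD under the library average, and starting fluorescence ratio not unusually high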;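 also: choline stimulus applied at its EC90 after an EC20 pre-addition; B-score computed on integrated fluorescence ratio after choline addition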
# Target sequence (Q9GZV3 whole entry, looked up): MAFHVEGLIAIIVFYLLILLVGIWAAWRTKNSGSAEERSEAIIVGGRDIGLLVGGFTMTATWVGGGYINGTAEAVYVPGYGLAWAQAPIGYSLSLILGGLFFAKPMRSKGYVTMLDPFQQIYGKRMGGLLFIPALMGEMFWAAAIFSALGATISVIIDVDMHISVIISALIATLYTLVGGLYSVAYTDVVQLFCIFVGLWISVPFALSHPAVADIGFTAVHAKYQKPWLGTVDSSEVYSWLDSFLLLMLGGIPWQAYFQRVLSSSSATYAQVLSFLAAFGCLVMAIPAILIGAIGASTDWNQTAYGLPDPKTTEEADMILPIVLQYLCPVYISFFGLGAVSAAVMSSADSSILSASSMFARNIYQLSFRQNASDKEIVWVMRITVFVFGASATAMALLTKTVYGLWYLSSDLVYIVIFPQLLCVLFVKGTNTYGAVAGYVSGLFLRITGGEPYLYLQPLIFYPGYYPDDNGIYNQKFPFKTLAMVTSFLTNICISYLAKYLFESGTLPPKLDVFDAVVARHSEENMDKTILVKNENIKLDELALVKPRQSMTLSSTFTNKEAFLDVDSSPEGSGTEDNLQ
# Calls only; i = inactive. The list is partial, and most or all hits are left out here.
entry	compound	CHT block
1	O=C(Cn1cnc2sc3c(c2c1=O)CCCC3)NCC(=O)Nc1c(F)cccc1F	i
2	COc1ccc(CC(=O)NNC(=O)c2cccs2)cc1OC	i
3	COCCCN1C(=O)C(O)=C(C(=O)c2ccco2)C1c1cccc(Br)c1 (centres undefined)	i
4	NC(=O)CC(NC(=O)c1cccc(Br)c1)c1ccc(N2CCC(N3CCCCC3)CC2)c([N+](=O)[O-])c1 (centres undefined)	i
5	COC(=O)CN(n1cnnc1)S(=O)(=O)c1ccccc1Cl	i
6	CCOC(=O)c1sc(NC(=O)CS(=O)(=O)c2ccc(C)cc2)nc1C	i
7	COc1cc(/C=N/n2nnnc2N)ccc1OC(C)=O	i
8	Cc1nc2nc(SCC(=O)NCc3ccco3)nn2c(C)c1Cc1ccccc1	i
9	CSCCC(NS(=O)(=O)c1ccc2c(c1)oc(=O)n2C)C(=O)NC1CCN(Cc2ccccc2)CC1 (centres undefined)	i
10	CC(=O)Cn1cnc2scc(-c3ccc(C)c(C)c3)c2c1=O	i
11	COC(=O)c1ccc(CNC(=O)c2ccc(COc3ccccc3)cc2)cc1	i
12	O=C(Nc1ccc(Cl)cc1)C1CCN(C(=O)NC2CCCCC2)CC1	i
13	Cc1ccnc(SCc2cc(=O)c(OC(=O)c3ccc(Cl)c([N+](=O)[O-])c3)co2)n1	i
14	COc1ccccc1C(=O)NCCSCc1ccccc1Cl	i
15	COc1ccc(N2C(=O)C(Cl)=C(N3CCCC3)C2=O)cc1	i
16	COc1ccc(-c2cc(C)nc(SCc3cccc(C(=O)O)c3)n2)cc1	i
17	Cc1cc(Nc2cccc(C)c2C)n2nc(C)nc2n1	i
18	O=C(Nc1ccc(CN2CCOCC2)cc1)c1ccc(-c2ccc(Br)cc2)o1	i
19	Cc1c(NS(=O)(=O)c2ccc([N+](=O)[O-])cc2)c(=O)n(-c2ccccc2)n1C	i
20	O=C(NCC(=O)N1CCN(c2ccccn2)CC1)c1ccc(Br)o1	i
21	COC(=O)c1ccc(C(=O)OC)c(NC(=S)N2CCCC2)c1	i
22	CCOC(=O)N1CCC(N2CCN(c3cc(C)ccc3C)CC2)CC1	i
23	CC(Sc1nc2ccccc2c(=O)n1CC1CCCO1)C(=O)Nc1ccc(S(N)(=O)=O)cc1 (centres undefined)	i
24	CCOC(=O)CNC(=O)CCc1nnc2ccc(N3CCC(C)CC3)nn12	i
25	CCN(CC)S(=O)(=O)c1ccc(N2CCN(CCO)CC2)nc1	i
26	CCCCNC(=O)c1nn2c(C(F)(F)F)cc(-c3ccc(OC)cc3)nc2c1Br	i
27	Cc1ccc(Cc2c(C)nc3nc(SCC(=O)NCCCN4CCCC4)nn3c2C)cc1	i
28	Cc1ccc(C)c(NC(=O)Cc2nc(CNCC(C)C)cs2)c1	i
29	O=C(NCc1ccncc1)C(=O)NCc1ccco1	i
30	O=C1/C(=C/c2cccnc2)Cc2ccc(Cl)cc21	i
31	C1=CN2CCC1C(c1ccccc1)C2 (centres undefined)	i
32	CCOC(=O)CC1C(=O)NCCN1C(=O)c1c(F)cccc1F (centres undefined)	i
33	COc1ccccc1CNC(=O)COC(=O)c1cccc(S(=O)(=O)N2CCCC2)c1	i
34	CCCNC(=O)Cn1cnc2sc(C(=O)N3CCN(c4ccc(F)cc4)CC3)c(C)c2c1=O	i
35	Cc1csc(NC(=O)CCNC(=O)c2ccccc2Cl)n1	i
36	Cc1ccc(SCC(=O)NC2CC2)cc1	i
37	CCC(=O)N1c2ccccc2NC2=C(C(=O)CC(c3ccco3)C2)C1c1ccco1 (centres undefined)	i
38	NC(=O)Cn1nc2sc3ccccc3n2c(=O)c1=O	i
39	CC(=O)c1cccc(NC(=S)N2CCN(S(C)(=O)=O)CC2)c1	i
40	CCSc1nnc(NC(=O)CSc2nnc(CNC(=O)c3ccc(OC)cc3)o2)s1	i
41	CN(C)/C=C(\C=O)c1ncc(C(F)(F)F)cc1Cl	i
42	CC(C)c1ccc(CN(C(=O)c2cccs2)C2CCS(=O)(=O)C2)cc1 (centres undefined)	i
43	O=C(c1ccc(S(=O)(=O)Nc2cccc(C(F)(F)F)c2)cc1)N1CCOCC1	i
44	CCN(CC(=O)N1CCCC1)S(=O)(=O)c1ccccc1	i
45	COc1ccc(/C=N/NS(=O)(=O)c2ccc(C)cc2)cc1OC(=O)c1ccccc1	i
46	CCOC(=O)c1c(C)[nH]c(C)c1C=O	i
47	CC(CC(=O)C1C(C)C=CCC1(C)C)NNC(N)=O (centres undefined)	i
48	Cc1ccc(SCC(=O)OCC(=O)NC2CCCCCCC2)cc1	i
49	Cc1ccc(S(=O)(=O)N2CCCOC2CNC(=O)C(=O)NC2CCCC2)cc1 (centres undefined)	i
50	CCOc1ccc(N2CC(C(=O)Nc3ccccn3)CC2=O)cc1 (centres undefined)	i
51	CC(OC(=O)c1cccs1)C(=O)NCc1cccs1 (centres undefined)	i
52	CC(C)c1ccc(/C=C2\C(=O)N(CCN3CCOCC3)C(=S)N2C)cc1	i
53	Cc1ccc(NS(=O)(=O)c2ccc(Cl)c(NC(=S)NC(=O)C3CCCCC3)c2)cc1Cl	i
54	CCOC(=O)c1c(NC(=O)c2cccc(N3C(=O)CCC3=O)c2)sc2c1CCN(CC)C2	i
55	Cc1ccnc(SCC(=O)n2c3c(c4ccccc42)CC(C)CC3)n1 (centres undefined)	i
56	CCCc1c(C(=O)NNc2ccc(C)cc2)cnn1-c1ccccc1	i
57	CCN(CC)c1ccc(/C=N/n2c(C)cc(C)cc2=O)cc1	i
58	C/C(=C\c1cccs1)C(=O)c1c(C)cc(C)[nH]c1=O	i
59	Cc1nc(C(F)(F)F)c(C(=O)N/N=C(\N)c2ccccn2)s1	i
60	COc1ccccc1N1CCN(c2cnccn2)CC1	i

# The final 6 records of the section before come first, to join the parts:
entry	compound	CHT block
55	Cc1ccnc(SCC(=O)n2c3c(c4ccccc42)CC(C)CC3)n1 (centres undefined)	i
56	CCCc1c(C(=O)NNc2ccc(C)cc2)cnn1-c1ccccc1	i
57	CCN(CC)c1ccc(/C=N/n2c(C)cc(C)cc2=O)cc1	i
58	C/C(=C\c1cccs1)C(=O)c1c(C)cc(C)[nH]c1=O	i
59	Cc1nc(C(F)(F)F)c(C(=O)N/N=C(\N)c2ccccn2)s1	i
60	COc1ccccc1N1CCN(c2cnccn2)CC1	i
61	COc1ccc(NC(=O)CSCCc2ccccn2)cc1OC	i
62	CCN(CC)CCNC(=O)CNC(=O)c1nn(-c2ccc(OC)c(OC)c2)c(=O)c2ccccc12	i
63	COc1ccc(S(=O)(=O)n2ccnc2C)c(C)c1C	i
64	COc1ccc(CCN=C(N)NS(=O)(=O)c2ccc(C)c(C)c2)cc1OC	i
65	Cc1ccc(NC(=S)NNC(=O)Nc2ccccc2)cc1	i
66	C/C(=N\NC(=O)CNC(=O)c1ccc2c(c1)OCO2)c1ccco1	i
67	Cc1cc(C)n(-c2nc(O)cc(=O)[nH]2)n1	i
68	O=C(c1ccc(Br)cc1)N1CCN(Cc2ccccc2)CC1	i
69	Cn1c(=O)c2c(nc(Br)n2CCCc2ccccc2)n(C)c1=O	i
70	OCc1cn(-c2ccccc2)nc1-c1cc2ccccc2o1	i
71	O=C(CCc1ccccc1)NCCSc1ccccc1	i
72	O=C(/C=C/c1cccc([N+](=O)[O-])c1)NCC1CCCO1 (centres undefined)	i
73	COc1ccc2[nH]cc(CCNC(=O)Cc3ccc(Br)cc3)c2c1	i
74	Cc1[nH]nc(SCC(=O)N(C)c2ccccc2)c1[N+](=O)[O-]	i
75	Cc1ccc(C)c(OCc2cc(C(=O)N3CCNC(=O)C3)no2)c1	i
76	CCc1ccc(S(=O)(=O)c2ccc(-n3nc(C)cc3N)cc2)cc1	i
77	COc1ccc2[nH]cc(C(O)CN3CCC(C(N)=O)CC3)c2c1 (centres undefined)	i
78	COc1ccc(CC(=O)Nc2nnc(SCc3ccccc3)s2)cc1S(=O)(=O)N1CCOCC1	i
79	COc1ccc(C(=O)Nc2ccc3c(c2)C(=O)NC3=O)cc1	i
80	CCOc1ccc(NC2CCCCC2NS(=O)(=O)c2ccccc2)cc1 (centres undefined)	i
81	CCN1C(=O)c2cccc3c(S(=O)(=O)NC(Cc4c[nH]c5ccccc45)C(=O)O)ccc1c23 (centres undefined)	i
82	CCN(CC)C(=O)C(C)N(C#N)c1nc(C)cc(C)n1 (centres undefined)	i
83	O=C(c1cccc(Cl)c1)N1CCN(c2ncccn2)CC1	i
84	CSc1ccc(CNc2nnnn2C)cc1	i
85	CCN1CCN(C(=O)CN(CC)S(=O)(=O)c2ccc3ccccc3c2)CC1	i
86	Cc1nc2ccccc2nc1OCC(=O)N1CCN(c2ccccc2)CC1	i
87	COC(=O)c1sccc1NC(=O)c1ccncc1	i
88	COC(=O)[C@@H]1CC[C@H](C)[C@@H](c2ccc(C)cc2)N1C(=O)c1ccc(/C=N/O[C@H](C)c2cn([C@@H]3COC[C@H]3O)nn2)cc1	i
89	Cc1ccc(NC(=O)C2CCN(S(=O)(=O)c3cnc[nH]3)CC2)nc1	i
90	COc1ccccc1N1CCN(C(=O)c2sc3nc4n(c(=O)c3c2C)CCC4)CC1	i
91	Cc1ccc(Sc2ccc([N+](=O)[O-])cc2[N+](=O)[O-])nc1	i
92	CC1CCC2(CC1)NC(=O)N(CC(=O)Nc1ccc(N3CCOCC3)cc1)C2=O (centres undefined)	i
93	O=C(O)C1CC(=O)N(c2ccc(OCc3c(F)cccc3Cl)cc2)C1 (centres undefined)	i
94	COc1cc([N+](=O)[O-])ccc1NC(=O)NNC(=O)c1sccc1C	i
95	Cc1ccc(C(=O)NCc2ccco2)cc1S(=O)(=O)Nc1cccc(C)c1C	i
96	Cn1c(CNC(=O)c2ccco2)nnc1SCC(=O)c1ccc(F)cc1	i
97	Cc1c(NC(=O)c2cc(-c3ccc(Cl)cc3)on2)c(=O)n(-c2ccccc2)n1C	i
98	O=C1CNC(=O)N1CC(=O)N1CCCc2ccccc21	i
99	O=Nc1c2ccc[nH]c-2c2ccc([N+](=O)[O-])cc12	i
100	C/C(=N/NC(=O)Cn1nc2ccccc2n1)c1ccc(F)cc1	i

# Reformatted field by field: part of the list above
87: COC(=O)c1sccc1NC(=O)c1ccncc1
  CHT block: i
88: COC(=O)[C@@H]1CC[C@H](C)[C@@H](c2ccc(C)cc2)N1C(=O)c1ccc(/C=N/O[C@H](C)c2cn([C@@H]3COC[C@H]3O)nn2)cc1
  CHT block: i
89: Cc1ccc(NC(=O)C2CCN(S(=O)(=O)c3cnc[nH]3)CC2)nc1
  CHT block: i

# The list continues:
entry	compound	CHT block
101	COCCOC(=O)c1c(C)oc2ccc(OCc3ccccc3)cc12	i
102	CCCn1c(N2CCOCC2)nc2c1c(=O)[nH]c(=O)n2C	i
103	COc1cccc2cc(C(=O)Oc3ccc(NC(C)=O)cc3)c(=O)oc12	i
104	CC(=O)c1cccc(NC(=O)c2cc(C)nn2-c2ccccc2)c1	i
105	O=C(Oc1ccc2ccc(=O)oc2c1)N1CCOCC1	i
106	O=S(=O)(c1ccc2ccccc2c1)N1CCCCC1	i
107	CCN(CC)S(=O)(=O)c1ccc(NCc2ccccc2)nc1	i
108	COc1ccccc1NS(=O)(=O)c1cccc(C(=O)N/N=C(\C)c2ccc(-n3ccnc3)cc2)c1	i
109	Cn1cnnc1SCC(=O)NN1C(=O)NC(C)(c2ccccc2)C1=O (centres undefined)	i
110	OC(COc1ccccc1)CN1CCN(Cc2ccc3c(c2)OCO3)CC1 (centres undefined)	i
111	O=C(NCc1ccc2c(c1)OCO2)C1CC(c2ccc(Cl)cc2)=NO1 (centres undefined)	i
112	COc1ccc(OC)c(CN(CCCN2CCOCC2)S(=O)(=O)c2ccc(NC(C)=O)cc2)c1	i
113	CCC(C)NC(=O)Cn1cnc([N+](=O)[O-])c1 (centres undefined)	i
114	CC(=O)C1C(c2ccc([N+](=O)[O-])cc2)C2C(C)=NN=C2CC1(C)O (centres undefined)	i
115	COC(=O)[C@H](Cc1ccccc1)NC(=O)C1CCN(C(=O)[C@H](C)NS(=O)(=O)c2ccc(C)cc2)CC1	i
116	Cc1nc(NC(=O)CSc2nc3cccnc3n2C2CCCCC2)sc1C	i
117	COc1ccc(NS(=O)(=O)c2cccc(C(=O)NNC(=O)c3cccn3C)c2)cc1	i
118	CCCn1c(NC(=S)Nc2ccccc2)nc2ccccc21	i
119	COc1ccc(NC(=O)Nc2cccnc2)cc1	i
120	CCC(=O)Nc1c(-c2ccc(Cl)cc2)c(=O)c2ccccc2n1C	i
121	COc1cccc(NC(=O)c2cnc(SCC(=O)NCc3ccc4c(c3)OCO4)n(C)c2=O)c1	i
122	COc1cc(/C=C2\SC(=S)N(CCC(=O)NC3CCCC3)C2=O)cc(OC)c1OC	i
123	CC1(C)CC(=O)C(C(=O)/C=C/NCCc2ccccc2)C(=O)C1	i
124	COc1ccccc1-n1cc(CN2CCN(C3CCCCC3)C(CCO)C2)cn1 (centres undefined)	i
125	CC(=O)Nc1cc(-c2nn(C)c(=O)c3ccccc23)ccc1N1CCCCC1	i
126	COc1ccc2c(c1)c(=O)c(C(=O)O)c(-c1ccc3c(c1)OCO3)n2C	i
127	O=C(CN1C(=O)C2(OCCCO2)c2ccccc21)NCCc1ccccc1	i
128	CCOCCCNC(=O)c1c(N)n(-c2ccc3c(c2)OCO3)c2nc3ccccc3nc12	i
129	COC(=O)Cc1ccc(NC(=S)NCc2ccccc2Cl)cc1	i
130	CCOc1ccc(NC(=O)c2nn(-c3ccc(OC)cc3OC)c(=O)c3ccccc23)cc1	i
131	Cc1cc(NS(=O)(=O)c2ccc(NC(=O)C(c3ccccc3)c3ccccc3)cc2)no1	i
132	CCn1c(O)c(C=Nc2ccccc2)n(-c2ccccc2)c1=S	i
133	O=C(Nc1ccc(S(=O)(=O)Nc2ncccn2)cc1)c1ccccc1NS(=O)(=O)c1ccc(Cl)cc1	i
134	CC(=O)c1cccc(Nc2nc(-c3sc(N)nc3C)cs2)c1	i
135	COc1cc(C2C(C(=O)c3ccc(C)o3)=C(O)C(=O)N2c2cc(C)on2)ccc1O (centres undefined)	i
